# Screening results from PubChem.
# Tg IFNy HTS: T. gondii growth inhibition under IFN-gamma | activity change, negative = inhibition, %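 (about 20 µM by stock and volumes)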 | hit rate 3.8% among 69,000 | Toxoplasma gondii growth in IFN-gamma-treated host cells; active compounds read low; reference of the scale not given here;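 active means below -70%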;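 further: host cells are HeLa cells infected with Toxoplasma gondii; parasite growth read as luciferase light; one replicate is shown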
# Numbers without * were called inactive; i = inactive; ! = repeats disagree. The list is partial; count on the stated rates, not on these rows.
SMILES,Tg IFNy HTS
S=C(Nc1ccc(Cl)cc1Cl)N1CCCC1c1cccs1 (stereo unspecified),-38.9
O=C(c1nc(SCc2ccc(Cl)cc2)n2ccccc12)C(F)(F)F,30.6
Cc1oc(-c2ccc(NC(=O)c3cccc(C(F)(F)F)c3)cc2)nc1Cn1cccn1,-49.0
CC(C)c1nccn1Cc1cc(C(=O)N(C)CCC2(O)CCCC2)n[nH]1,9.4
COc1ccc(C(=O)C2CCCCC2=O)cc1 (stereo unspecified),60.7
Cc1ccc(F)cc1NC(=O)c1nnn(Cc2nc(-c3ccccc3C)oc2C)c1C,105.0
COc1ccc(Cn2cc(C(=O)N3CCC(O)(c4ccccc4C)C3)nn2)cc1 (stereo unspecified),-50.4
Cc1cccnc1CN1CCC2(CC(NC(=O)c3cnn(C)c3)C2)C1 (stereo unspecified),-1.2
Cc1onc(-c2ccccc2)c1C(=O)Nc1cccnc1,23.5
Cc1oc(C2CCN(C(=O)Nc3ccc(F)cc3)CC2)nc1C(=O)N1CCCC1,-16.7
O=C(C[C@@H]1CC[C@@H]2[C@H](COC[C@H](O)CN2Cc2cccc(Cl)c2)O1)NCc1cccc(F)c1,-5.1
Cc1cc(C)c(C(N)=O)c(CC(C)(C)C(=O)O)c1,20.4
Cc1cc(N2Cc3cnn(CCO)c3C2)c2cc3c(cc2n1)OCO3,-9.7
COc1ccccc1NC(=O)N1C[C@@H](O)COC[C@@H]2O[C@H](CC(=O)NCCc3ccncc3)CC[C@H]21,14.6
CC1NC(=O)COC12CCN(C(=O)c1ccno1)CC2 (stereo unspecified),-13.4
CN(C)c1ncnc2c1CCN(C(=O)c1cc3c(Cl)cccc3[nH]1)C2,1.4
Cc1cc(C)c(S(=O)(=O)N2CCC3(CC2)Nc2cc(C)ccc2-n2cccc23)c(C)c1,15.2
CCc1c(C)sc2c1CCN(Cc1nc(-c3ccc(OC)cc3)oc1C)C2c1ccccc1 (stereo unspecified),8.9
Cc1ccsc1-c1nc(CN2CCc3nnc(C(C)C)n3CC2)c(C)o1,0.4
CC(=O)N1CCCC1c1nnn2cc(Nc3cccc(F)c3)ccc12 (stereo unspecified),95.1
COc1ccccc1-c1ccc2c(c1)O[C@@H](CN(C)CC1CCOCC1)[C@H](C)CN([C@@H](C)CO)S2(=O)=O,-3.0
O=C(c1cccc(-n2cnnc2)n1)N1CCCC(c2ccn[nH]2)C1 (stereo unspecified),25.6
OCCOc1ccccc1CN1CCN(c2ncnc3ccccc23)CC1,-6.5
CCCC(=O)N1C[C@@H]2[C@H](c3ccccc31)[C@H](CO)N2C(=O)Nc1ccc(F)cc1,2.2
Cc1nc(CCNC(=O)C2CCN(S(=O)(=O)c3cnn(C(F)F)c3C)CC2)cs1,27.3
CC(C)NC(=O)NCC[C@H]1CC[C@@H](NS(=O)(=O)c2ccc(Oc3ccccc3)cc2)[C@H](CO)O1,-38.4
CS(=O)(=O)N1CC2(COC(C(=O)NCCc3cccnc3)C2)c2ccccc21 (stereo unspecified),8.3
COc1cc(C(=O)NC2CCCNC2)cc(OC)c1OC (stereo unspecified),25.1
Cc1cccc(N2CCC3(CCCN(C(=O)c4cnccn4)C3)C2)n1 (stereo unspecified),0.2
Cc1c(C#N)c(N)n(Cc2c(Cl)cccc2Cl)c1C,73.9
O=C(c1cc2n(n1)CCCN(c1ccncc1F)C2)N1CCOCC1,2.7
COc1ccc(CC(=O)NCCNc2nc(-c3ccncc3)cc3ncccc23)cc1,-1.0
CN(C)Cc1ccccc1Cn1cnc(-c2ccccc2)c1-c1cnc[nH]1,7.1
CCc1c(C)nn(-c2nc(C)cc(C)n2)c1OC(=O)c1ccccc1,28.0
COCC(=O)Nc1ccc2c(c1)C(=O)N(C)[C@@H]1CC[C@@H](CC(=O)NCCCN(C)C)O[C@@H]1CO2,38.0
C[C@@H]1CN([C@@H](C)CO)C(=O)c2c(c3ccccc3n2C)-c2ccccc2CO[C@H]1CN(C)S(=O)(=O)c1ccc([N+](=O)[O-])cc1,-48.2
COCCC(=O)N1CC[C@@H](N(C)C)[C@@H]1Cc1cccnc1,18.2
CCCCN(CC)C(=O)c1ncn2c1CN(CC1CC1)S(=O)(=O)c1ccccc1-2,0.2
Cn1c(=O)c2c(n(C)c1=O)=NC1(CCCCC1)ON=2,5.2
CCS(=O)(=O)N1CC2(C1)CN(S(=O)(=O)c1ccccc1)[C@@H](CO)c1c2c2ccc(OC)cc2n1C,7.9

# A few values from above:
# CCS(=O)(=O)N1CC2(C1)CN(S(=O)(=O)c1ccccc1)[C@@H](CO)c1c2c2ccc(OC)cc2n1C | Tg IFNy HTS = 7.9
# COCCC(=O)N1CC[C@@H](N(C)C)[C@@H]1Cc1cccnc1 | Tg IFNy HTS = 18.2
# COCC(=O)Nc1ccc2c(c1)C(=O)N(C)[C@@H]1CC[C@@H](CC(=O)NCCCN(C)C)O[C@@H]1CO2 | Tg IFNy HTS = 38.0

# Other entries follow:
SMILES,Tg IFNy HTS
O=C(NCCc1csc(-c2ccccc2)n1)C1CCN(C(=O)c2ccc(F)c(F)c2)CC1,-23.7
CCn1cc(S(=O)(=O)N2CCCCC2c2ccc(F)cc2)cn1 (stereo unspecified),-7.2
Cc1noc(-c2cc(=O)n(CC(=O)Nc3ccc(F)cc3F)c3ccccc23)n1,7.4
Fc1cccc(CNCC2OCCc3cn(CC4CCOCC4)nc32)c1 (stereo unspecified),5.8
CCc1[nH]c2ccc(CNc3cc(COC)ncn3)cc2c1C,-78.1*
Cc1ccc(-c2nc(Cn3ccn4nc(-c5ccc(Cl)cc5)cc4c3=O)c(C)o2)c(C)c1,54.3
CCc1cnc(N2C[C@@H]3CN(Cc4cccc(C)n4)C(=O)[C@@H]3C2)nc1,-34.4
C[C@@H]1O[C@@H](OC[C@H]2OC(Oc3c(-c4ccc(O)c(O)c4)oc4cc(O)cc(O)c4c3=O)[C@H](O)[C@@H](O)[C@@H]2O)[C@H](O)[C@H](O)[C@H]1O (stereo partly specified),15.9
Cc1c(Br)c(C(F)(F)F)nn1CC(=O)N1CCCCC1,2.9
Cc1nc(-c2ccc(CNC(=O)c3cc(CC(C)C)nn3C)cc2)no1,-77.8*
CCOC(=O)C1CCN(C(=O)C2=C(C)C(=O)OC23CCCCC3)CC1,150.2
COCCN(CCOC)C(=O)c1cc(-c2cnc(N(C)C)nc2)cn1CC1CC1,-1.8
Cc1cc(NC(=O)CC2CCCC2)n(-c2ncnc3c2cnn3-c2ccc(F)cc2)n1,-12.9
CCCCCN=c1ccn(Cc2ccccc2)c2ccccc12,-0.3
CCOC(=O)c1cc(C(=O)OC)c(C)nc1NCc1ccc2c(c1)OCO2,-17.0
O=S(=O)(c1ccccc1F)N1[C@@H]2CNC[C@H]1C2c1ccc(-c2cncnc2)cc1 (stereo partly specified),-24.6
Fc1ccc(C2(c3noc(COc4cccnc4)n3)CCOC2)cc1 (stereo unspecified),8.1
CN1CCC(C)(CNC2CSCCSC2)C1 (stereo unspecified),3.3
Cn1cnc(-c2ccccc2)c1-c1cccc2cnccc12,-1.0
COc1ccc(CC(=O)NC2CCC3(CCC(=O)N3)CC2)cc1 (stereo unspecified),2.9
Cc1ccc2c(c1)CCCN2C(=O)CN1CCCC1c1cc(C)no1 (stereo unspecified),3.2
CC(C)n1cnc2c1C(C(=O)Cc1ccccn1)N(S(C)(=O)=O)CC2 (stereo unspecified),2.7
Cc1ccc(S(=O)(=O)Nc2nc(C)c(NC(=O)Nc3nc(C)cc(C)n3)s2)cc1,3.2
COc1ccc2c3c(n(C)c2c1)[C@H](CO)N(S(C)(=O)=O)CC31CCN(C(=O)c2ccccn2)CC1,7.3
Cc1ncsc1CCN(C)Cc1ccccc1C(=O)O,9.2
CCOC(=O)c1noc2ncn(Cc3nc(-c4cccc(Br)c4)oc3C)c(=O)c12,0.6
COc1cccc(C#Cc2ccc([C@H]3[C@@H](C#N)N[C@@H]3CO)cc2)c1,62.8
CN(Cc1cccnc1)C1CCN(C(=O)c2cccnc2)C(C(=O)O)C1 (stereo unspecified),-4.6
Cc1cc(C(=O)N(Cc2c(C)nn(C)c2C)C(C)C)nc(C)n1,-13.5
CCOC(=O)N1CCC2(CC1)OC(=O)C(C)=C2C(=O)NCc1cccc(Cl)c1,135.2

# Reformatted with bars between the fields: part of the list above
SMILES | Tg IFNy HTS
CC1NC(=O)COC12CCN(C(=O)c1ccno1)CC2 (stereo unspecified) | -13.4
CN(C)c1ncnc2c1CCN(C(=O)c1cc3c(Cl)cccc3[nH]1)C2 | 1.4
Cc1cc(C)c(S(=O)(=O)N2CCC3(CC2)Nc2cc(C)ccc2-n2cccc23)c(C)c1 | 15.2
CCc1c(C)sc2c1CCN(Cc1nc(-c3ccc(OC)cc3)oc1C)C2c1ccccc1 (stereo unspecified) | 8.9

# More records.
SMILES,Tg IFNy HTS
O=C(NCCc1csc(-c2cccc(F)c2)n1)c1cccc(F)c1,-59.2
Cc1oc(-c2cccs2)nc1-c1nccn1Cc1noc(C(C)C)n1,5.7
COc1ccc(NC(=O)N2CCC(c3nc(C(=O)N(C)C)c(C)o3)CC2)c(C)c1,-32.2
CCN1C(=O)CCc2cc(NS(=O)(=O)c3c(C)cccc3Cl)ccc21,-48.1
Cc1cc(N2CCN(C(=O)c3cccc4c(C)c(C)[nH]c34)CC2)nc(C)n1,84.9
COc1ccc(-c2nnc3n2C2(CCCCC2)Cc2ccccc2-3)cc1,-37.6
Cc1ccc(C(=O)Nc2ccc(-c3nc(-c4ccccc4)co3)cc2)cc1,25.2
O=C1CC(c2cccc3c2oc2ccccc23)c2cn[nH]c2N1 (stereo unspecified),-35.9
O=C(NCc1cccnc1)c1ccc(-c2cccs2)s1,10.3
Cc1cccc(CO[C@@H]2C[C@@H]3CN(C(=O)c4cccnc4)CCN3C2)n1,-10.5

# 4 entries from above, with each value named:
Cc1ccc(C(=O)Nc2ccc(-c3nc(-c4ccccc4)co3)cc2)cc1
  Tg IFNy HTS: 25.2
O=C1CC(c2cccc3c2oc2ccccc23)c2cn[nH]c2N1 (stereo unspecified)
  Tg IFNy HTS: -35.9
O=C(NCc1cccnc1)c1ccc(-c2cccs2)s1
  Tg IFNy HTS: 10.3
Cc1cccc(CO[C@@H]2C[C@@H]3CN(C(=O)c4cccnc4)CCN3C2)n1
  Tg IFNy HTS: -10.5

# Remaining list, next part:
SMILES,Tg IFNy HTS
Cc1ccc(C(O)(c2ccccc2)c2nc3ccccc3n2C)cc1 (stereo unspecified),-7.6
O=C(NCc1cc(Cl)c2c(c1)OCCCO2)c1cccc(Nc2ncccn2)c1,-71.3*
O=C(Nc1cc(C(F)(F)F)ccc1N1CCOCC1)c1cccnc1Cl,7.5
CCc1c(C)cc(C(=O)N2CC[C@@H](c3ccc4c(c3)OCO4)[C@H](O)C2)c(=O)n1C,2.1
CO[C@H]1CN(C)C(=O)c2cc(NS(=O)(=O)c3cccc(Cl)c3)ccc2OC[C@H](C)NC[C@H]1C,-86.4*
CCCn1c(=O)c2oc(C)cc2n(-c2ccccc2C)c1=O,8.0
Cc1ncsc1CCN(C)C(=O)c1cn(CCC2CCCCC2)nn1,1.7
O=C1CCCc2occ(C(=O)N3CCc4[nH]nc(Cc5ccccc5)c4C3)c21,-8.4
CC1=C(C(=O)N2CCN(c3ccc(F)cc3)CC2)C2(CCN(S(C)(=O)=O)CC2)OC1=O,34.2
CCN1C(=O)C2(CCOCC2)c2cc(Nc3ncc(C)cn3)ccc21,-24.1
CCS(=O)(=O)N1CCO[C@@H]2[C@H]1CC[C@H]2OCC(=O)N1CCCC1,3.7
Cc1ccc(N(CC(=O)NCc2cccnc2)S(C)(=O)=O)cc1,13.4
CC(C)C1COC2(CCN(Cc3cnn(C)c3)C2)C1 (stereo unspecified),-5.5
Cc1ccc(-c2coc(-c3ccc(NC(=O)Nc4cc(C)cc(C)c4)cc3)n2)cc1,117.6
Cc1ccc(F)c(-c2cnc(N)cn2)c1,-44.1
O=S(=O)(c1ccc(Br)s1)N1CCC2(CC1)Nc1cc(F)ccc1-n1cccc12,16.5
O=C1COC2(CCN(C(=O)c3ccno3)CC2)CN1,i
CN1CCC=C(CCNC(=O)C23CC4CC(CC(C4)C2)C3)C1,-3.2
CN1C(=O)c2cc(NC(=O)C3CCOCC3)ccc2OC[C@@H]2O[C@@H](CC(=O)NCCc3ccncc3)CC[C@H]21,5.9
Cc1c(C2CC(=O)Nc3c2c(-c2cccnc2)nn3C)oc2ccccc12 (stereo unspecified),-2.6
O=C(NNc1ccccc1)c1ccncc1,-9.0
O=C(c1ccccn1)N1CCO[C@@H]2[C@H]1CC[C@H]2OCc1cccnc1,50.9
COc1cccc(CNC(=O)c2c(O)c3cccnc3n(-c3ccccc3)c2=O)c1,-65.7
COCc1cc(=O)[nH]c(SC2CC(=O)N(c3ccc(N4CCOCC4)cc3)C2=O)n1 (stereo unspecified),12.9
O=C(c1cn(-c2ccccc2)nn1)N1CCN(c2cnccn2)CC1,-10.3
CC(C)Oc1ncnc2c1CCN(S(=O)(=O)C1CC1)CC2,-25.5
COc1ccc(CNc2c(-c3ccc(O)c(OC)c3)nc3cnccn23)cc1,-8.1
O=C(c1cnc2ccccc2c1)N1CCC2(CC(=O)N(c3cccc(F)c3)C2)C1 (stereo unspecified),-74.3*
Cc1noc(C)c1NC(=O)N(C)C[C@@H]1OCc2cnnn2CCCC(=O)N([C@H](C)CO)C[C@H]1C,138.7
Cc1cc(C)c(NC(=O)CSCC(=O)c2ccc(Cl)cc2)c(C)c1,-12.3
CCCCOc1cc(CC2CNC(=O)N2)ccc1OC (stereo unspecified),-71.8*!
O=C1CCC2=C(CCCC2)N1c1ccccc1,-14.0
CN(C)CCc1c[nH]c2ccc(CS(=O)(=O)N3CCCC3)cc12,2.3
CC1CCc2c(sc(NC(=S)NC(=O)c3ccnn3C)c2C(N)=O)C1 (stereo unspecified),37.0
C=CCN1CCN(C(=O)CCOC)Cc2cccnc21,0.7
CC1CCc2[nH]nc(C(=O)N3CC(c4ccncc4)C3)c2C1 (stereo unspecified),0.7
C=CCNc1nc(C2(C)CC3(CC(COCCC(C)C)OC3=O)C(=O)O2)cs1 (stereo unspecified),-3.8
Cc1occc1C(=O)N1CCC2(CCN(Cc3cccc(F)c3)C2=O)C1 (stereo unspecified),3.0
CC(C)c1nccn1CCCNC(=O)c1ccc(N2CC=CC2)nc1,48.3
C[C@@H]1CCCCO[C@H](CN(C)Cc2ccncc2)[C@@H](C)CN([C@H](C)CO)C(=O)c2cc(NS(=O)(=O)c3ccc(Cl)cc3)ccc2O1,-23.0
